# RN4220 kill – kills Staphylococcus aureus RN4220; S. aureus RN4220 growth, OD600, 16 h; inhibition, % (no concentration beside the values); AID 1259311; 330,000 compounds, 0.33% hits;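 active = z-score of -3 or lower and OD600 up to 0.18 on both plates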;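 note: plate controls were untreated cells for no effect and reference antibiotic for full effect; stock transfer was 100 nL into about 80 µL; one replicate is shown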
# PrP 5UTR inh – suppresses PrP 5' UTR mRNA reporter expression. AID 488862. inhibition, % (test concentration not listed). 340,000 compounds, 0.35% hits. cell-based PrP 5' UTR mRNA reporter, plate reader;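 active = every replicate at 50% or more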;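 note: 0 = median of the neutral control wells; tested in H4 reporter cells; numbers are from one replicate; inactives centre near -14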
# BJeLR viability – BJeLR cell viability loss; inhibition, % (no concentration beside the values); 300,000 compounds, 0.17% hits; AID 1554; BJeLR (HRASV12) viability, CellTiter-Glo ATP luminescence, 48 h; reference of the scale not given here;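 active = replicate mean above 50%; inconclusive = above 50% but judged a plate artefact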;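 note: 50 nL library stock added to about 25 µL; numbers are from one replicate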
# Mtb hypoxia rep – reduces hypoxia-regulated biosensor signal in M. tuberculosis. fluorescence inhibition, % (concentration not given with the values). M. tuberculosis hypoxia-regulated fluorescent reporter, fluorescence. 300,000 compounds, 0.1% hits;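 active = 35 to 45% if threefold the growth effect, above 45% if 1.5-fold the growth effect; inactive = the rest, general growth blockers included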;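 note: wells of about 50 µL received 100 nL stock; 0% = vehicle wells and 100% = reference inhibitor wells; whole bacteria with a GFP reporter of the hypoxia response; strong numbers were not always called active; many hits fall short of the cut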
# ugtP null kill – growth inhibition of S. aureus ugtP deletion strain; 330,000 compounds, 0.54% hits; S. aureus RN4220 ugtP deletion, OD600 growth, 16 h; some inactives read as strong as hits; growth inhibition, % (concentration not given with the values);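 active = z-score under -3 and OD600 up to 0.15 on both plates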;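 note: plate controls were untreated wells for no effect and antibiotic for full effect; wells of about 80 µL received 100 nL stock; the first replicate is given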
# Bead autofluor – counter-screen for toxin protease inhibitors: compound fluorescence; compound autofluorescence counterscreen, microsphere flow cytometry; stronger effect = higher value; fluorescence intensity (no concentration beside the values); 360,000 compounds, 3.1% hits;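 active = at least 3 SD above the mean of all compounds, about 16000 in these data; inconclusive = too few beads counted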;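 note: 100 nL of 1 mM stock went into each well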
# Mtb hypoxia rep growth – further read-out of Mtb hypoxia rep, marked with its call; growth inhibition, %; measured here: M. tuberculosis growth (absorbance);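 0% = vehicle and 100% = reference antibiotic; read after six days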
# Active calls of the source: *; ? = inconclusive; · = no result given.
SMILES,RN4220 kill,PrP 5UTR inh,BJeLR viability,Mtb hypoxia rep,Mtb hypoxia rep growth,ugtP null kill,Bead autofluor
COc1cc(C=C(C#N)C(=O)c2ccc(O)c(O)c2)cc(I)c1O,7.0,·,·,11.2,-2.0,-6.8,·
OCCSc1nc2ccccc2n1CCOc1ccccc1,2.8,-38.4,6.2,1.7,-16.7,1.5,8831
O=C(c1ccc(F)cc1F)N1CCN(c2ncccn2)CC1,-1.1,-11.5,0.3,-2.0,8.0,-2.4,4925
COc1cc(C2NC(=O)NC(c3ccccc3)=C2C(C)=O)ccc1OCC(=O)O (stereo unspecified),2.6,-26.1,-0.6,11.3,6.0,2.4,5772
O=[N+]([O-])c1cccc(NC(=S)N2CCOCC2)c1,3.6,-23.7,-0.1,6.0,9.4,6.5,4222
Cc1cc(NC(=O)CSc2nc(-c3ccc(Cl)cc3)cs2)no1,-2.1,-18.8,-7.2,9.8,7.6,-6.0,20504*
CCC1CCCCN1C(=S)NC(=O)c1cccc([N+](=O)[O-])c1 (stereo unspecified),-0.3,-10.3,1.6,-1.7,-1.9,13.2,5087
Cc1ccc(N=C(/N=C(\N)N[N+](=O)[O-])Nc2ccc(C)cc2)cc1,2.6,-5.3,0.6,8.1,7.3,-2.2,3137
O=C(Nc1ccccc1N1CCOCC1)c1ccco1,5.1,-10.0,-3.4,-5.4,-3.3,3.4,3851
O=C(c1ccco1)N1CCN(C(=O)C2c3ccccc3Oc3ccccc32)CC1,0.6,-20.8,-16.6,3.2,4.1,-3.8,10339
CCN1C(=O)NC(c2cccnc2)C(C(=O)OC)=C1C (stereo unspecified),3.3,-7.4,11.8,7.6,3.8,0.5,8952
CCCCCCn1c(SCC(=O)OC)nc2c1c(=O)[nH]c(=O)n2C,-7.9,-26.8,-1.2,11.3,7.1,-0.5,6293
O=C(NC1CCCC1)C(c1ccccc1F)N(C(=O)c1csnn1)c1ccccc1 (stereo unspecified),1.4,-7.7,-1.3,-4.1,-7.3,2.0,4502
COCCCNC(=S)N(CCCO)Cc1cc2cc3c(cc2[nH]c1=O)OCCO3,7.7,-15.0,-3.3,15.7,16.1,6.4,3395
O=C(O)C1C2C=CC(C3CC23)C1C(=O)N1CCc2ccccc21 (stereo unspecified),0.7,9.5,5.6,-1.9,-3.1,2.3,8274
O=C(CN1CCN(c2ccc(F)cc2)CC1)Nc1cc(C(F)(F)F)ccc1Cl,0.1,-5.6,-8.1,·,·,1.8,2520
CCn1cc(C(=O)OCC(=O)NCc2ccc3c(c2)OCO3)c(=O)c2ccc(C)nc21,-1.7,-24.4,-11.6,8.1,3.6,-3.9,9617
CC1(c2nnc(-c3cccc(Cl)c3)o2)CC(c2ccc(C#N)cc2)=NO1 (stereo unspecified),5.2,-15.1,10.9,7.2,8.1,-15.6,2840
CC(=O)Nc1ccc(S(=O)(=O)NCC(=O)NNC(=O)COc2c(C)cccc2C)cc1,4.3,-18.8,·,9.8,8.1,7.5,3774
Cc1ccc(NC2=C/C(=N\S(=O)(=O)c3cccs3)c3ccccc3C2=O)c(C)c1,10.8,-41.2,41.4,4.8,5.1,-5.0,4146
Cc1sc2nc(Cc3ccccc3)[nH]c(=O)c2c1-c1ccccc1,4.2,-19.7,-7.2,1.1,-0.8,1.5,9335
O=C(NCCc1ccccc1)c1cc(S(=O)(=O)N2CCCC2)ccc1F,·,-10.4,-8.0,·,·,·,5354
COc1ccc(C(=O)SC2=NCCS2)cc1OC,4.6,-25.8,8.3,14.6,5.6,-10.7,?
CC1CC(=O)C2=C(C1)Nc1ccccc1N(C(=O)COc1ccccc1)C2c1ccco1 (stereo unspecified),-1.2,-9.1,6.8,0.9,1.5,-6.4,3221
COCc1nnc(NC(=O)CCCOc2ccccc2OC)s1,4.0,-11.6,2.5,12.1,6.1,-7.0,3408
Nc1sc(-c2ccccc2)cc1-c1n[nH]c(=S)n1C1CCCCC1,·,-20.3,28.6,·,·,·,6249
Cc1ccccc1N1CCN(Cc2cc3c(cc2[N+](=O)[O-])OCO3)CC1,3.2,-24.4,16.7,7.8,16.4,15.1,3546
COc1ccc(C(=O)NCC(=O)N/N=C/c2ccco2)cc1OC,·,-19.0,7.3,·,·,·,5266
COc1ccc(C2CC(c3ccccc3)=NN2C(=O)CSc2ncccn2)cc1 (stereo unspecified),3.7,-6.1,-19.5,-4.5,3.0,-3.7,2551
COc1ccc(/C(C)=N/Nc2ccc(C(=O)O)cc2)cc1OC,·,-37.2,-0.8,·,·,·,10104
CN1CCN(C(=O)CCC(=O)NCc2ccc(F)cc2)CC1,3.2,-17.8,4.7,1.8,-3.5,4.8,3554
CCCS(=O)(=O)N1CCCC(C(=O)Oc2ccccc2Cl)C1 (stereo unspecified),4.2,-2.9,3.8,-2.9,8.5,8.9,3858
C/C(=N/NS(=O)(=O)c1ccc(C(C)(C)C)cc1)c1ccc2c(c1)OCO2,·,-13.1,-1.1,·,·,·,5604
O=C(O)C1(C(=O)O)CCCC1,0.8,-30.3,·,8.9,8.0,-0.7,3785
COc1ccc(C2=NS(=O)(=O)N(C)C(C(=O)N(C)Cc3ccccc3)=C2)cc1,-13.9,-2.8,-4.2,0.9,12.7,-8.9,4402
COc1ccc(C2/C(=C(/O)c3ccc(F)cc3)C(=O)C(=O)N2CCCN(C)C)cc1 (stereo unspecified),1.2,-14.2,·,-3.4,-4.5,4.2,3774
COc1ccc(NC(=O)CN(C)C(=O)c2ccc(-c3ccccc3Cl)o2)cc1,-1.7,-28.3,-17.6,-0.9,1.5,3.1,·
Cn1c(SCC(=O)NCc2cccs2)nnc1-c1ccco1,1.9,-5.9,-5.8,-0.7,14.0,1.4,10853
Cc1cc(Nc2ccc3c(c2)OCCO3)n2ncnc2n1,5.3,-25.3,2.9,-6.6,6.2,-11.2,22455*
O=C(Nc1nc(-c2ccccc2)cs1)C1CCCO1 (stereo unspecified),5.9,-35.6,-1.0,4.5,5.1,3.4,9538
Cc1ccc(S(=O)(=O)N2CCN(C(=S)NCCc3ccccc3)CC2)cc1,4.1,-29.6,3.6,8.4,7.7,2.8,3347
COC(=O)[C@H](Cc1ccccc1)NC(=O)NCc1ccccc1,2.9,-0.5,0.9,0.0,7.3,4.7,·
CCOc1ccccc1NC(=O)Nc1cc(C(=O)O)ccc1C,4.7,6.8,1.7,-4.3,-1.5,0.8,2535
O=C(NCc1nnc(SCc2ccc(C(F)(F)F)cc2)n1-c1ccccc1)C12CC3CC(CC(C3)C1)C2,-8.4,-13.9,5.6,-10.2,-3.3,-27.2,2558
CCCN(Cc1ccccc1)C(=S)Nc1ccc(F)cc1,2.1,-15.6,7.3,7.1,6.8,3.9,4504
CCCCOCCCNCc1cccn1CCN1CCOCC1,1.9,-49.3,2.8,9.9,3.2,7.5,4028
CCOC(=O)c1ccc(CNS(=O)(=O)c2c(C)ccc3nsnc23)o1,-12.9,-18.2,7.2,4.1,7.1,-5.0,2910
O=c1cc(CSc2nnc(C3CC3)n2Cc2ccccc2)nc2sccn12,-1.0,4.5,-8.7,-7.6,13.8,11.4,5026
CCCC1=C(C(=O)OCC)C(c2ccco2)n2ncnc2N1 (stereo unspecified),3.1,-7.9,-2.2,-0.8,-0.7,5.2,5996
CCOc1ccccc1CN1CCN(Cc2nc3ccccc3s2)CC1CCO (stereo unspecified),2.6,-4.8,-1.7,2.4,0.4,3.0,2099
O=C1NC(=O)/C(=C/c2ccc(O)cc2)S1,·,-15.2,-2.8,·,·,·,2625
NS(=O)(=O)c1cccc(NC(=O)CN2CCN(S(=O)(=O)c3ccc4c(c3)OCCO4)CC2)c1,4.5,-14.3,·,8.9,4.7,4.6,4351
COc1ccc(-c2[nH]ncc2CN2CCC(OCc3ccccn3)CC2)c(F)c1,2.6,-10.9,-3.1,-11.7,-5.5,11.9,3491
CN(N)C(=S)NCc1ccccc1,-2.1,-18.6,-0.5,-5.5,-6.7,-5.5,4300
Cc1ccc(C(=O)CCNc2cccc(Br)c2)o1,10.3,-23.4,3.3,15.3,7.8,-3.1,2597
CCN1CCN(C(=O)c2ccc3c(c2)N(Cc2ccc(F)cc2)C(=O)c2ccccc2S3=O)CC1 (stereo unspecified),-0.6,-12.6,-4.6,·,·,8.1,6169
O=C(c1ccccc1)N1CCCCC(S(=O)(=O)c2ccc3ccccc3c2)C1=O (stereo unspecified),0.1,·,4.3,2.0,7.9,-5.8,9952
COc1ccc(C(=O)O)cc1S(=O)(=O)N1CCN(Cc2ccc3c(c2)OCO3)CC1,3.2,-4.0,·,7.1,3.8,7.3,3681
Cc1oc2c(CN(C)C)c(O)ccc2c(=O)c1-c1cscn1,4.2,-15.9,-2.4,1.5,5.5,9.2,9378
O=C(CSc1ncnc2c1nnn2Cc1ccccc1)NC1CCCC1,-10.5,0.0,16.7,4.6,2.9,-1.7,4438

# Structures from the list above that contain an NH in an aromatic ring:
SMILES,RN4220 kill,PrP 5UTR inh,BJeLR viability,Mtb hypoxia rep,Mtb hypoxia rep growth,ugtP null kill,Bead autofluor
CCCCCCn1c(SCC(=O)OC)nc2c1c(=O)[nH]c(=O)n2C,-7.9,-26.8,-1.2,11.3,7.1,-0.5,6293
COCCCNC(=S)N(CCCO)Cc1cc2cc3c(cc2[nH]c1=O)OCCO3,7.7,-15.0,-3.3,15.7,16.1,6.4,3395
Cc1sc2nc(Cc3ccccc3)[nH]c(=O)c2c1-c1ccccc1,4.2,-19.7,-7.2,1.1,-0.8,1.5,9335
Nc1sc(-c2ccccc2)cc1-c1n[nH]c(=S)n1C1CCCCC1,·,-20.3,28.6,·,·,·,6249
COc1ccc(-c2[nH]ncc2CN2CCC(OCc3ccccn3)CC2)c(F)c1,2.6,-10.9,-3.1,-11.7,-5.5,11.9,3491

# Continuation.
SMILES,RN4220 kill,PrP 5UTR inh,BJeLR viability,Mtb hypoxia rep,Mtb hypoxia rep growth,ugtP null kill,Bead autofluor
CC1CCN(Cc2nnnn2CCCC(=O)NCCc2cnn(C)c2)CC1,3.2,-10.5,1.4,6.6,3.4,4.3,5024
Oc1ccc(Br)cc1/C=N/n1c(C2CCCCC2)n[nH]c1=S,·,-7.2,12.7,·,·,·,3509
N#C/C(=C/c1ccc(Oc2ccc([N+](=O)[O-])cn2)cc1)C(=O)N1CCOCC1,4.4,-22.3,7.8,4.1,1.5,1.7,10707
O=C(NC(=S)Nc1ccccc1Cl)c1cncc(C#Cc2ccccc2)c1,0.8,-25.5,2.3,2.8,6.4,29.3,4149
c1ccc(OCCN2CCOCC2)cc1,-1.3,-4.7,-1.6,-6.1,-1.0,2.7,3847
COc1ccc(CN(CCN2CCOCC2)C(=O)c2c(F)cccc2F)cc1OC,2.9,·,5.2,-2.2,-0.9,6.0,10816
CCC(C(=O)N1CCOCC1)n1nc(C)c2sc3ccccc3c2c1=O (stereo unspecified),2.4,-13.0,9.0,-0.4,14.6,5.0,5365
COc1ccc(C)cc1NC(=O)C1C2C=CC(C2)C1C(=O)O (stereo unspecified),3.2,-18.4,9.3,3.6,7.6,9.6,3359
CCN(CC)c1ccc(C2C3CCCCC3(O)CCN2C(=O)c2cccs2)cc1 (stereo unspecified),4.5,7.9,8.2,-2.1,8.7,6.2,2359
Cc1cc(C)c2c(C(C)(C)C)nn(-c3ccccc3)c2n1,-5.9,-4.2,-1.5,-6.7,1.6,39.5,3838
Cc1ccccc1NC(=O)COc1nsnc1N1CCOCC1,8.2,-9.6,0.6,10.5,15.6,6.9,8254
COc1cccc(Nc2nc(-c3sc(N)nc3C)cs2)c1,1.7,-39.7,0.9,3.7,6.5,-13.5,10462
O=Cc1ccc(OC2OCCOC2Oc2ccc(C=O)cc2)cc1 (stereo unspecified),4.6,-43.8,-3.8,11.6,9.6,12.6,2173
Cc1c(NS(=O)(=O)c2cccs2)cccc1-c1nc2cccnc2s1,11.2,-29.1,-4.7,4.5,12.1,17.6,4730
CCOC(=O)CC(NC(=O)CCc1c(C)nc2ncnn2c1C)c1ccc(OC(C)C)cc1 (stereo unspecified),4.1,-27.5,11.0,-1.5,-2.3,2.1,2129
O=C(NCc1ccccc1)C1=C[C@@H](C2CCCCC2)C[C@@H](OCc2ccc(CO)cc2)O1,·,-7.5,-3.3,·,·,·,2831
Cc1ccc(-c2nc3ncccc3o2)cc1NC(=O)c1cc2ccccc2o1,0.4,3.4,2.3,·,·,-6.5,4751

# Screening results: PubChem, several laboratories
